# MenB inh: M. tuberculosis MenB inhibitors, primary screen, biochemical, absorbance | MenB enzyme assay, absorbance read-out; some hits fall short of the stated cut | AID 540299, 2011 | 1,4-dihydroxy-2-naphthoyl-CoA synthase (Mycobacterium tuberculosis (strain ATCC 25618 / … | 100,000 compounds, 0.43% hits | inhibition, %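 (about 12 µg/mL by stock and volumes)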;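 active = mean of two replicates above 30%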;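 note: 0% = no compound and 100% = wells with inactive enzyme; the first replicate is given; strong numbers were not always called active; inactives centre near -10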
# PV pol inh: poliovirus RdRp elongation inhibitors, primary screen, biochemical, fluorescence polarization, total intensity | Genome polyprotein (Poliovirus type 1 (strain Mahoney)), P03300 | poliovirus polymerase elongation; hits give low values | % elongation, % (compound at 16.7 µg/mL) | 150,000 compounds, 0.66% hits | AID 588519, 2011; in the data active = % elongation below about 90%; note: some results filed as inactive read as strong as hits
# Target sequence (P03300 1749-2209 limits assumed): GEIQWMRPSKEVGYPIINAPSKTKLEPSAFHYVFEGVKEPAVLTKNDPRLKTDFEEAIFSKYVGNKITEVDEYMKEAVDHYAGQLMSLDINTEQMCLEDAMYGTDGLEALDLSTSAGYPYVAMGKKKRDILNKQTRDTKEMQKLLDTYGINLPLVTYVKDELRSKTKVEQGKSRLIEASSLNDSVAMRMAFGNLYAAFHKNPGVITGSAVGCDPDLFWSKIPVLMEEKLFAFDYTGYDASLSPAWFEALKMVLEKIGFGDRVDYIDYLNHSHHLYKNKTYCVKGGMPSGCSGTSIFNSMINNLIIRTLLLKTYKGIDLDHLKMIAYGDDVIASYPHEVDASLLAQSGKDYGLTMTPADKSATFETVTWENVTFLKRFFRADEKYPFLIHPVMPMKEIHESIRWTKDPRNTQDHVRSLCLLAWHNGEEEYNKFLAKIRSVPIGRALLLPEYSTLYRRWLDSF
# Mtb MbtI inh: MbtI salicylate synthase inhibitors, primary screen, biochemical, fluorescence intensity; P9WFX0; purified MbtI enzyme, fluorescence intensity read-out; inhibition, %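 (about 17 µg/mL by stock and volumes)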; 100,000 compounds, 0.89% hits; AID 493033, 2011;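 active = above 50% in both replicates, above 80% if mildly self-fluorescent; inactive = the rest, strongly fluorescent compounds included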;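 note: 0% = mean of negative and 100% = mean of positive controls; one replicate is shown; some compounds called inactive have numbers as strong as hits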
# Target sequence (P9WFX0 whole entry, looked up): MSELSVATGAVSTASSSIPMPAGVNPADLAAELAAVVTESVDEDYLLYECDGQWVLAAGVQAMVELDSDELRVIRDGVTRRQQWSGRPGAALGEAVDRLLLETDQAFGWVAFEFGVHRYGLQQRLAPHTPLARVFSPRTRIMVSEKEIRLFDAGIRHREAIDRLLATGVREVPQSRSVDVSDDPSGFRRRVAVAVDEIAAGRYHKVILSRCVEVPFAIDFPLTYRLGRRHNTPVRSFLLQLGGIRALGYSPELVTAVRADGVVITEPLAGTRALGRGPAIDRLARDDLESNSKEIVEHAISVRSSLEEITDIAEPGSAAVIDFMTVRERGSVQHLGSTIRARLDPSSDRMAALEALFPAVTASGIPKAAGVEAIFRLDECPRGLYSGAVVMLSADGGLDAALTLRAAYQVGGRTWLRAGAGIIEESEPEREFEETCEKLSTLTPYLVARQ
# PV pol inh intensity: second read-out of PV pol inh, no call of its own (marks repeat the call); % elongation; measured here: total intensity read-out; formula for this scale not given here;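 total fluorescence in place of polarization; lower means less elongation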
# Numbers without * were called inactive; i = inactive; · = no result given; & = joins results of further samples.
# Start of the data: the first 3 compounds as a preview:
SMILES	PV pol inh intensity	PV pol inh	Mtb MbtI inh	MenB inh
O=C1S/C(=C/c2ccccc2Cl)C(=O)N1c1ccccc1	104.0	102.0	-6.5	-9.8
NC(=O)CSc1nc2c(sc3ccccc32)c(=O)n1CCCN1CCOCC1	101.0	101.0	-9.8	7.3
COCCCn1c(-c2c(C)oc3ccccc23)cs/c1=N\S(=O)(=O)c1ccccc1	107.0	103.0	1.5	-35.3

# The list itself, from the first entry:
SMILES	PV pol inh intensity	PV pol inh	Mtb MbtI inh	MenB inh
O=C1S/C(=C/c2ccccc2Cl)C(=O)N1c1ccccc1	104.0	102.0	-6.5	-9.8
NC(=O)CSc1nc2c(sc3ccccc32)c(=O)n1CCCN1CCOCC1	101.0	101.0	-9.8	7.3
COCCCn1c(-c2c(C)oc3ccccc23)cs/c1=N\S(=O)(=O)c1ccccc1	107.0	103.0	1.5	-35.3
CC(NC(=O)CSCc1cnn(-c2ccccc2)c1-n1cccc1)c1ccccc1 (configuration not stated)	103.0	102.0	-2.5	-7.3
COc1ccc2c3c([nH]c2c1)C(C)=NCC3	101.0&100.0	98.0&100.0	i	-1.8&-6.0
Cc1ccccc1NC(=O)C1C2C3CCC(C3)C12 (configuration not stated)	99.0	102.0	-5.8	-2.7
Cc1ccc2c(CC(=O)NCC(C)C)coc2c1	103.0	107.0	-8.2	-32.9
CCN(c1ccccc1)S(=O)(=O)c1ccc2c(c1)N(C(C)=O)CC(C)O2 (configuration not stated)	100.0	102.0	-21.8	-10.7
Cc1cc2nc(NCC(C)O)c3ccccc3n2n1 (configuration not stated)	·	·	101.6	-15.3
CCOC(=O)CSc1nc2cc3c(cc2c(=O)n1CCCC(=O)NCc1ccc(OC)cc1)OCO3	103.0	98.0	-14.2	14.5
O=C(O)CNc1ccc(C(=O)O)cc1	100.0	101.0	-1.5	-17.8
O=C(O)CCCc1nc2cc3ccccc3cc2[nH]1	104.0	102.0	89.6	-21.7
c1ccc2c(c1)N1CCN2CC1	102.0	102.0	6.5	-7.4
CSc1nnc(-c2ccncc2)n1-c1ccccc1C	94.0	102.0	5.3	-27.4
CCOC(=O)C(Sc1nnc(C(CC)N(C)C)n1Cc1ccccc1)c1ccccc1 (configuration not stated)	98.0	105.0	7.9	4.0
COC(=O)CSc1ncnc2ccccc12	113.0	111.0	14.2	-7.5
NC(=O)N/N=C1\CCCC1c1ccccn1 (configuration not stated)	99.0	97.0	11.6	-9.7
COc1ccc(C(=O)N(CC(=O)NC2CCCC2)C2CCCCC2)cc1OC	103.0	102.0	0.2	-53.0
CCOC(=O)C1=C(C)OC(N)=C(C#N)C12C(=O)Nc1ccc(C)cc12 (configuration not stated)	103.0	104.0	·	2.6
CC(C)=C1C(=O)NN(c2ccccc2)C1=O	95.0	104.0	14.4	-39.3
CC1=Cn2c(nc3ccccc3c2=O)CN1NC(=O)NC1CCCCC1	98.0	99.0	-0.8	-13.2
C/C(=C(/C#N)P(=S)(N1CCOCC1)N1CCOCC1)N1CCCC1	104.0	95.0	32.4	-0.6
Cc1cc2oc(=O)cc(-c3cc4ccccc4o3)c2cc1OCC(N)=O	103.0	103.0	-2.0	-26.8
COC(=O)C1=C(C)NC(=O)NC1c1cc2c(cc1Cl)OCO2 (configuration not stated)	101.0	103.0	-2.2	-5.4
COC(=O)c1sccc1N/N=C(\C#N)S(=O)(=O)c1cccs1	99.0	102.0	12.2	-22.4

# The list goes on:
SMILES	PV pol inh intensity	PV pol inh	Mtb MbtI inh	MenB inh
CCCN(CCC)S(=O)(=O)c1ccc(F)c(C(=O)Nc2cc(C)ccc2OC)c1	94.0	101.0	-7.7	-21.8
CCOC(=O)CN1C(=O)N(Cc2ccc(F)cc2)S(=O)(=O)c2ccccc21	101.0	102.0	-22.2	-15.4
CCOC(=O)C1CCN(c2cc(C(F)(F)F)nc3ccc(C)cc23)CC1	102.0	102.0	-7.3	-7.2
NC(=O)C1CCCN(C(=O)NC2CCCCC2)C1 (configuration not stated)	106.0	102.0	6.8	10.1
Cc1ncc(CO)c(/C=N/O)c1O	95.0	99.0	144.7	-19.4
C=CCn1c(P(=O)(O)c2ccccc2)nc2ccccc21	113.0	113.0	·	-3.1
Cc1cc(C)c(N=C(NN)N(C)C)cc1C	97.0	97.0	-5.6	-0.7
CC1CCCC(C)N1CCCNC(=O)C1c2ccccc2C(=O)N1CCc1ccc(Cl)cc1 (configuration not stated)	100.0	99.0	-3.2	-20.5
CCCn1c(=N)n(CC(=O)C(C)(C)C)c2ccccc21	104.0	101.0	-74.3	18.8
O=C(O)CCc1nc2ccccc2n1-c1ccccc1	103.0	99.0	-9.9	·
CCOC(=O)c1sc2nc(C)nc(N(C)Cc3ccccc3)c2c1C	103.0	102.0	8.0	-24.4
CN(C)C(Cc1ccc(Cl)cc1)C(=O)c1ccccc1 (configuration not stated)	108.0	105.0	-0.4	-14.9
O=C(Cn1cnc2ccccc21)NC1CCCC1	103.0	101.0	4.8	32.7*
Cc1ccc(S(=O)(=O)NC2CCCCC2n2cc(-c3ccccc3)nn2)cc1 (configuration not stated)	103.0	104.0	1.7	-0.7
Cc1cc(=O)n2ccccc2c1C#N	107.0	106.0	94.1	-11.1
O=C(c1ccc(Cl)cc1)N1CCc2c([nH]c3ccccc23)C1C(F)(F)F (configuration not stated)	115.0	103.0	-10.3	7.0
Cc1ccc(NC(=O)CN(CCO)c2ccccc2)cc1	103.0	102.0	9.1	·
Cc1ncoc1C(=O)Nc1ccccc1F	104.0	100.0	-1.6	-10.1
Clc1ccc2c(N3CCN(c4ncccn4)CC3)ccnc2c1	103.0	99.0	-1.9	0.8
O=C(Oc1ccc(Cl)cc1)c1c(-c2ccccc2)nnc2ccccc12	107.0	110.0	-4.7	-18.6
CCCN1C(=O)C(NC(=O)c2ccco2)(C(F)(F)F)N=C1c1ccccc1 (configuration not stated)	102.0	99.0	-4.2	13.6
O=C(Nc1ccc(F)cc1F)c1cccnc1Sc1cccs1	111.0	107.0	-4.2	-12.3
Cc1c2cnn(-c3ccccc3)c(=O)c2c(C)n1C(C)C(=O)Nc1nccs1 (configuration not stated)	99.0	102.0	8.6	3.7
O=C(Nc1cccc(N2C(=O)C=CC2=O)c1)c1cccs1	111.0	104.0	83.2	-66.9
CC(=O)Oc1ccc2c(=O)c(-c3ccccc3)c(C(F)(F)F)oc2c1	109.0	104.0	-12.5	-14.2

# (cont.)
SMILES	PV pol inh intensity	PV pol inh	Mtb MbtI inh	MenB inh
O=C(c1noc2c1CCCC2)N1CCC(c2c[nH]c3ccccc23)(c2c[nH]c3ccccc23)CC1	101.0	101.0	-4.1	9.9
COC(=O)c1sc(NC(=O)CSc2n[nH]c(-c3cccs3)n2)c(C(=O)OC)c1C	134.0	121.0	-0.4	-12.0
CCC1(CC)Cc2ccccc2-c2nc(-c3ccccc3)oc(=O)c21	105.0	101.0	-5.7	-13.9
C=CCc1cccc2cc(C(=O)N3CCCCC3)c(=O)oc12	102.0	99.0	11.0	-22.8
COc1ccccc1C(=O)OC1CCN(C)CC1	96.0	105.0	·	-19.0
NCC1OC(O[C@@H]2C(O)[C@H](OC3C(O)C(N)CC(N)C3OC3OC(CO)C(O)C(O)C3N)O[C@@H]2CO)C(N)C(O)C1O (some centres not stated)	100.0	102.0	-22.7	-6.5
COc1ccc(OCCNC(C)=O)cc1	101.0	109.0	·	-2.3
CS(=O)(=O)N1CCCc2cc(C(=O)NCC(=O)Nc3ccc(F)c(F)c3)ccc21	107.0	107.0	5.2	7.1
c1ccc2[nH]c(CNc3ncnc4sccc34)nc2c1	111.0	105.0	-4.2	1.7
Cc1cc(C(=O)OCc2nc(N)nc(N)n2)c2ccccc2n1	107.0	104.0	12.6	-33.1
CC(=O)Oc1ccc2c(=O)c(-c3nc4ccccc4n3C)c(C)oc2c1	110.0	104.0	-12.7	14.1
C=CCn1c(SCC(=O)c2ccc(CC)cc2)nnc1-c1cccc(OC)c1	113.0	106.0	·	4.2
CCOc1ccc(OCC)c(S(=O)(=O)N2CCC(C)CC2)c1	102.0	102.0	-5.2	11.6
CC1CCCC(C)N1/N=C/c1ccccc1OC(F)F (configuration not stated)	102.0	97.0	-9.3	-11.6
CCOC(=O)c1ccc2c(c1)C(=O)N(c1ccccc1OC)C2=O	101.0	102.0	-5.2	-17.2
Cc1nnc(-c2ccccc2)c(=O)n1/N=C/c1ccc(O)c(O)c1	109.0	111.0	·	-34.4
CCOC(=O)c1sc(SCc2cccc(Cl)c2)c(S(=O)(=O)C(C)C)c1-n1cccc1	108.0	106.0	0.2	-0.8
c1ccc(N(c2ccccc2)c2nc(-c3ccco3)cs2)cc1	107.0	105.0	15.5	-36.4
O=C(O)/C(=C/c1cccs1)c1cccs1	101.0	101.0	2.9	·
O=C(Cn1cnc2c(nnn2Cc2ccc(Cl)cc2)c1=O)NC1CCCCC1	102.0	102.0	8.9	-7.4
CN1C=C(c2ccccc2)N(c2ccccc2)C1	65.0*	67.0*	·	-26.4
OCCN1CCN(CC/C=C2/c3ccccc3Sc3ccc(Cl)cc32)CC1	102.0	100.0	-26.0	-1.6
Cc1cccc(Cn2c(SCc3ccc(C(=O)NCCN4CCCC4)cc3)nc3ccncc32)c1	104.0	105.0	12.9	-11.3
CC(=O)N[C@H]1[C@H](Oc2ccccc2)O[C@@H]2COC(c3ccccc3)O[C@H]2[C@@H]1O (some centres not stated)	101.0	101.0	-5.5	9.1
CCC1(C)CC(C(=O)c2cccc(C)c2)CCO1 (configuration not stated)	101.0	107.0	-6.8	-36.6

# Additional structures:
SMILES	PV pol inh intensity	PV pol inh	Mtb MbtI inh	MenB inh
CCN(/C=C/C(=O)c1ccccc1O)CC	97.0	94.0	·	-57.5
NC(=O)C1CCCCN1Cc1cc2c(cc1O)CCC2 (configuration not stated)	104.0	104.0	-9.4	1.3
CCOC(=O)n1c(=O)sc2ccccc21	106.0	107.0	·	0.0
Cc1nn(-c2ccccc2)c(C)c1CN(C)C(=O)CNC(=O)c1cccs1	103.0	101.0	6.3	-0.5
Cc1nn(-c2ccccc2)c2sc(C(=O)N3CCOCC3)cc12	101.0	100.0	17.6	11.0
CC(C)n1nccc1N(CC(=O)N(C)C1CCCCC1)S(=O)(=O)c1ccccc1	100.0	103.0	1.8	-16.4
Cc1oc(C(C)(C)C)cc1-c1cc(NS(=O)(=O)c2ccc(Cl)cc2)n[nH]1	100.0	103.0	1.9	-27.7
O=C(Cn1cnnn1)Nc1ccc(Sc2ccc(Br)cc2)cc1	108.0	101.0	2.0	-1.5
COC(=O)Nc1nc2c(C)cccc2s1	102.0	100.0	10.2	-18.9
CCCC(=O)Nc1cccc(NC(=O)c2cccnc2)c1	95.0	104.0	·	-20.2
CN(C)C(=O)CSc1nnc(-c2ccccc2O)n1Cc1ccccc1	101.0	99.0	-13.9	-14.2
Cc1c(C(=O)Nc2ccc(S(=O)(=O)N3CCCCCC3)cc2)oc2ccc(F)cc12	106.0	104.0	4.2	-42.2
CN(c1ccnc(C(=O)NCCN2CCOCC2)c1)S(=O)(=O)c1ccccc1	105.0	102.0	-30.0	-17.0
Cc1noc(C)c1CC(=O)Nc1ccc2c(c1)OCCCO2	105.0	100.0	-2.8	13.3
Cc1ccc(C)n1-c1ccc(C(=O)N2CCNC(=O)C2)cc1	·	·	8.1	-20.6
OC(CN1CCOCC1)C12CC3CC(CC(C3)C1)C2 (configuration not stated)	101.0	100.0	-8.5	·
COc1ccc(-n2nc(C)c3sc(C)nc3c2=O)cc1	107.0	103.0	3.9	0.7
O=C(COc1ccccc1Cl)N(c1ccccc1Cl)C1CN2CCC1CC2 (configuration not stated)	98.0	103.0	-8.4	-2.5
Cc1cc(N2CCNCC2)nc2ccccc12	100.0	101.0	89.0	-17.2
CCN1CCN(C(=O)Nc2ccc(Cl)c(Cl)c2)CC1	100.0	102.0	-4.6	-26.4
Brc1ccc2nc[nH]c2c1	104.0	98.0	-9.2	-85.5
N#CC(Cc1ccccc1)Sc1nnc(-c2ccco2)n1-c1ccccc1 (configuration not stated)	99.0	103.0	-0.6	-12.5
COCC(C)n1c(C)cc(C(=O)CSC2=N/C(=C\c3ccco3)C(=O)N2c2ccc(OC)c(Cl)c2)c1C (configuration not stated)	·	·	-2.5	-56.6

# An excerpt of these results, with each value named.
> COC(=O)Nc1nc2c(C)cccc2s1
- PV pol inh intensity: 102.0
- PV pol inh: 100.0
- Mtb MbtI inh: 10.2
- MenB inh: -18.9
> CCCC(=O)Nc1cccc(NC(=O)c2cccnc2)c1
- PV pol inh intensity: 95.0
- PV pol inh: 104.0
- Mtb MbtI inh: ·
- MenB inh: -20.2

# Some of the entries so far, with two lines to a compound:
# The line under a structure holds: PV pol inh intensity, PV pol inh, Mtb MbtI inh, MenB inh
> COC(=O)Nc1nc2c(C)cccc2s1
    102.0, 100.0, 10.2, -18.9
> CCCC(=O)Nc1cccc(NC(=O)c2cccnc2)c1
    95.0, 104.0, ·, -20.2
